Screens: PubChem BioAssay, Broad Institute
Ecoli rRNA inh = inhibitors of bacterial rRNA selective over humanized ribosomes. GFP signal change (wild-type ribosome), % (concentration not given with the values). hit rate 1.6% among 350,000. E. coli WT GFP vs humanized-ribosome RFP mutants, fluorescence, 24 h; stronger effect = lower value; DMSO median 0, no signal -100;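 active = significant combined selectivity score with lowered wild-type GFP, culture density cut under 30%, mutant RFP and density less affected; inactive = any of these conditions unmet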; also: one replicate is shown; some compounds called inactive have numbers as strong as hits
Ecoli rRNA inh OD600 = recorded beside Ecoli rRNA inh, whose call it bears; OD600 change, %; measured here: OD600 growth;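 optical density of the mix in the first replicate; 0 = DMSO median and -100 = no signal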
Ecoli rRNA inh RFP = second read-out of Ecoli rRNA inh, no call of its own (marks repeat the call); RFP signal change, %; measured here: RFP humanized mutant strains;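 first replicate; 0 = DMSO median and -100 = no signal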
* hit, by the source's call; & = joins results of further samples. Some of the compounds tested. The share of hits here may be higher or lower than overall.

SMILES	Ecoli rRNA inh	Ecoli rRNA inh OD600	Ecoli rRNA inh RFP
Cc1ccc(-c2ccc(C3[C@H]4CNC[C@@H]3N4C(=O)Nc3ccc(F)cc3)cc2)cc1 (stereo partly specified)	-60&-42	-75&-53	-8.2&-0.8
CCCNC(=O)C[C@@H]1CC[C@H]2[C@@H](COC[C@@H](O)CN2C(=O)Nc2ccc(Cl)c(Cl)c2)O1	-57	-75	-19
C[C@H](CO)N1C[C@H](C)[C@H](CN(C)Cc2ccc(Cl)c(Cl)c2)OCCCC[C@H](C)Oc2ccc(NC(=O)Nc3ccc(F)cc3)cc2C1=O	-1	12	-1.2
C[C@@H]1CCCCO[C@H](CN(C)C(=O)Nc2cccc3ccccc23)[C@@H](C)CN([C@@H](C)CO)C(=O)c2cc(NC(=O)CCC(F)(F)F)ccc2O1	-2	6	0.7
CC(C)NC(=O)N(C)C[C@@H]1Oc2ncc(C#CC3CCCC3)cc2C(=O)N([C@@H](C)CO)C[C@H]1C	1	-2	-4.9
COc1ccc(S(=O)(=O)Nc2cccc3c2O[C@@H](CN(C)S(=O)(=O)c2cccs2)[C@@H](C)CN([C@@H](C)CO)C3=O)cc1	-7	-4	0.4
C[C@H](CO)N1C[C@H](C)[C@H](CN(C)C(=O)c2ccccc2F)Oc2cc(-c3ccccc3)ccc2S1(=O)=O	-8	-25	2.9
C[C@@H]1CN([C@H](C)CO)C(=O)c2c(c3ccccc3n2C)-c2ccccc2CO[C@H]1CN(C)C(=O)Nc1cccc(Cl)c1Cl	3	4	-1.4
C[C@H]1CCCCO[C@@H](CN(C)Cc2ccc3c(c2)OCO3)[C@@H](C)CN([C@@H](C)CO)C(=O)c2cc(NS(=O)(=O)c3cn(C)cn3)ccc2O1	3	7	-0.1
C[C@H]1CN([C@@H](C)CO)C(=O)c2cccc(NC(=O)c3cnccn3)c2O[C@H]1CN(C)Cc1ccc(-c2ccccc2)cc1	-8	-14	3.1
Cc1ccc(S(=O)(=O)Nc2ccc3c(c2)CC(=O)N([C@@H](C)CO)C[C@H](C)[C@@H](CN(C)C(=O)NC(C)C)O3)cc1	2	3	-1.9
OC[C@@H]1CN(Cc2cccs2)C[C@H](n2cnc3c(NC4CCCC4)ncnc32)O1	-2	-5	4.8
O=C1OC(Cc2ccccc2)(c2ccccc2)c2ccccc21 (stereo unspecified)	-13	-38	-12
C[C@@H]1CN([C@H](C)CO)C(=O)Cc2cc(NC(=O)Cc3ccccc3)ccc2O[C@@H]1CN(C)C(=O)NC1CCCCC1	2	3	-0.8
C[C@H]1CN([C@@H](C)CO)C(=O)c2cccc(NC(=O)Nc3ccc4c(c3)OCO4)c2O[C@@H]1CN(C)Cc1ccncc1	-4	-5	0.3
CC(=O)N1CCN(Cc2cc(=O)oc3ccccc23)CC1	8	5	-2.9
CO[C@H]1CN(C)C(=O)c2ccc(NC(=O)c3ccccc3F)cc2OC[C@H](C)N(CC2CC2)C[C@H]1C	0	-2	1.0
OC[C@H]1[C@H](c2ccc(-c3ccccc3)cc2)[C@@H]2CN(Cc3cncnc3)CCCCN12	-5	4	1.2
CNC[C@@H]1Oc2ccc(NS(=O)(=O)c3cccs3)cc2C(=O)N([C@H](C)CO)C[C@H]1C	-1	-5	-2.2
C[C@H]1CN([C@@H](C)CO)C(=O)c2cc(NS(=O)(=O)c3ccccc3)ccc2O[C@@H]1CN(C)Cc1ccncc1	2	9	-1.3
COCOCCn1cc(CN2CCS(=O)(=O)N(Cc3ccc(-c4ccc(OC)c(OC)c4)cc3)C(C)C2=O)nn1 (stereo unspecified)	-3	-5	2.6
CO[C@@H]1CN(C)C(=O)c2ccc(NC(=O)Nc3c(C)noc3C)cc2OC[C@@H](C)NC[C@@H]1C	2	0	-0.6
CO[C@H]1CN(C)C(=O)c2cc(NS(C)(=O)=O)ccc2OC[C@@H](C)N(C(=O)C2CCOCC2)C[C@@H]1C	2	-5	-1.9
CN1OC[C@@H]2CN(C(=O)C(C)(C)C)[C@H](c3ccc(-n4ccnc4)cc3)C[C@@H]21	8	3	-2.4
O=C(Nc1cc(F)ccc1F)N1CC(=O)N2[C@H](C1)[C@@H](c1ccc(-c3ccccc3)cc1)[C@@H]2CO	-11	-38	23

Retrieved by structure from the entries so far:
SMILES	Ecoli rRNA inh	Ecoli rRNA inh OD600	Ecoli rRNA inh RFP
C[C@H]1CN([C@@H](C)CO)C(=O)c2cc(NS(=O)(=O)c3ccccc3)ccc2O[C@@H]1CN(C)Cc1ccncc1	2	9	-1.3
C[C@@H]1CN([C@H](C)CO)C(=O)Cc2cc(NC(=O)Cc3ccccc3)ccc2O[C@@H]1CN(C)C(=O)NC1CCCCC1	2	3	-0.8

Continuation.
SMILES	Ecoli rRNA inh	Ecoli rRNA inh OD600	Ecoli rRNA inh RFP
Cc1ccc(S(=O)(=O)N[C@H]2CC[C@H](CCNC(=O)C3CCCCC3)O[C@H]2CO)cc1	2	1	3.0
CCNC(=O)C1(C)CCN(C(=O)c2cc(F)ccc2C)C1 (stereo unspecified)	11	6	2.5
CN1C(=O)c2cc(NC(=O)C3CCOCC3)ccc2OC[C@H]2O[C@@H](CC(=O)Nc3ccc4c(c3)CCCC4)CC[C@@H]21	-2	-14	-0.8
COc1ccc(NC(=O)N[C@H]2CC[C@H](CCNC(=O)Cc3ccncc3)O[C@H]2CO)cc1	1	6	3.2
C[C@@H]1CN([C@H](C)CO)C(=O)Cc2cc(NC(=O)c3ccncc3)ccc2O[C@H]1CN(C)C(=O)NC1CCCCC1	1	-6	-1.8
O=C(NCC1CC1)c1cccc2c(-c3ccc(F)c(F)c3)coc12	-25	-51	3.2
CCC(=O)Nc1ccc2c(c1)OC[C@H](C)N(Cc1cncnc1)C[C@H](C)[C@H](OC)CN(C)C2=O	2	5	-4.4
CCCN1C[C@H](C)[C@@H](OC)CN(C)C(=O)c2cc(NC(=O)NC3CCCC3)ccc2OC[C@@H]1C	5	-3	1.3
CCNC(=O)C1(C)CCCN(C(=O)Cc2ccc(OC)c(OC)c2)C1 (stereo unspecified)	6	21	2.1
C[C@@H]1CN([C@H](C)CO)C(=O)c2cccc(NS(=O)(=O)c3cn(C)cn3)c2O[C@H]1CN(C)S(=O)(=O)c1cn(C)cn1	2	13	-1.0
Cc1ccc(S(=O)(=O)N(C)C[C@@H]2Oc3ccc(NS(=O)(=O)c4ccc(F)cc4)cc3CC(=O)N([C@H](C)CO)C[C@@H]2C)cc1	5	-1	5.1
C[C@@H]1CN([C@H](C)CO)C(=O)c2cc(C#CCC3CCCC3)cnc2O[C@H]1CN(C)C(=O)c1cnccn1	-3	-14	-3.3
C/C=C/c1ccc([C@@H]2[C@@H](CO)N(S(C)(=O)=O)C23CN(C(=O)CC)C3)cc1	3	2	0.0
C[C@@H]1CN([C@H](C)CO)C(=O)Cc2cc(NC(=O)Nc3ccc(C(F)(F)F)cc3)ccc2O[C@H]1CN(C)Cc1ccc2c(c1)OCO2	2	0	-2.4
N#Cc1ccc(S(=O)(=O)NC[C@H]2O[C@@H](n3ccc(N)nc3=O)[C@H](O)[C@@H]2O)cc1	19	14	0.2
CN(C)C(=O)C[C@@H]1CC[C@@H]2[C@H](COc3ccc(NC(=O)c4ccc(F)cc4)cc3C(=O)N2C)O1	4	7	0.0
CN(C)S(=O)(=O)c1cccc(C(=O)N2CCN(S(=O)(=O)c3ccc4c(c3)OCCO4)CC2)c1	4	6	6.9
C[C@@H]1CCCCO[C@H](CN(C)C(=O)c2ccccc2)[C@H](C)CN([C@@H](C)CO)C(=O)c2cc(NC(=O)Cc3ccccc3)ccc2O1	-4	-17	-0.3
CCCNC(=O)N1CCC2(CC1)CN(Cc1ccccc1)[C@H](CO)c1[nH]c3cc(OC)ccc3c12	-1	-3	-2.8
CCCN(C)C[C@@H]1Oc2ncc(C#CC3(O)CCCC3)cc2C(=O)N([C@@H](C)CO)C[C@@H]1C	4	9	1.1
CN1CCN(C(=O)C[C@H]2CC[C@@H]3[C@H](COC[C@@H](O)CN3CC3CCCC3)O2)CC1	-1	8	-2.6
C[C@H]1CN([C@@H](C)CO)C(=O)CCCn2cc(nn2)CO[C@@H]1CN(C)S(=O)(=O)c1ccc(Cl)cc1	3&1	14&-8	3.3&1.7
Cc1noc(C)c1NC(=O)N(C)C[C@@H]1Oc2c(NS(C)(=O)=O)cccc2C(=O)N([C@H](C)CO)C[C@H]1C	4	17	-3.9
CCOC(=O)CN1C(=O)[C@]2(OCCC=C[C@H]2C)c2c(Br)cccc21	19	19	1.0
O=C1NCCN1CCNc1nc(NCc2ccccc2)nc2ccsc12	2	10	5.5

Single entries from the list:
`C[C@@H]1CN([C@H](C)CO)C(=O)Cc2cc(NC(=O)c3ccncc3)ccc2O[C@H]1CN(C)C(=O)NC1CCCCC1` in Ecoli rRNA inh is listed with 1
`CCCNC(=O)N1CCC2(CC1)CN(Cc1ccccc1)[C@H](CO)c1[nH]c3cc(OC)ccc3c12` in Ecoli rRNA inh is listed with -1
`N#Cc1ccc(S(=O)(=O)NC[C@H]2O[C@@H](n3ccc(N)nc3=O)[C@H](O)[C@@H]2O)cc1` in Ecoli rRNA inh OD600 is listed with 14

(next part)
SMILES	Ecoli rRNA inh	Ecoli rRNA inh OD600	Ecoli rRNA inh RFP
COc1ccc(Cc2c(-c3cccc(Cl)c3)nc3ccc(Cl)cn23)c(C)c1	-19*	-0.1*	1.7*
COc1ccc(CCN2CC(C(=O)NCc3cn(C)nc3C)CCC2=O)cc1 (stereo unspecified)	3	10	-7.0
CCC[C@H]1CN(Cc2cccnc2)C(=O)[C@@H]1CC(=O)Nc1ccc(Br)cc1	-30	-42	-3.7
CC(C)(C)c1ccc(S(=O)(=O)N2CCN(C(=O)C(=O)c3cccc(C(F)(F)F)c3)CC2)cc1	5	9	-4.7
CC(C)CC#Cc1cnc2c(c1)C(=O)N([C@@H](C)CO)C[C@H](C)[C@H](CN(C)C(=O)Nc1ccccc1F)O2	0	8	1.6
CN(C(=O)CN1CCN(c2cc(-c3ccc(OCc4ccccc4)cc3)ncn2)CC1)c1ccccc1	-8	-37	32
CCCNC(=O)Nc1ccc2c(c1)C(=O)N(C)[C@@H]1CC[C@@H](CC(=O)NCCCN(C)C)O[C@@H]1CO2	1	2	-1.7
C[C@H]1CCCCO[C@@H](CN(C)CC2CCCCC2)[C@@H](C)CN([C@@H](C)CO)C(=O)c2cc(NC(=O)NC3CCCCC3)ccc2O1	-3	-40	32
COc1ccc(NC(=O)N(C)C[C@H]2OCCCC[C@@H](C)Oc3ccc(NS(=O)(=O)c4ccc(OC)cc4)cc3C(=O)N([C@@H](C)CO)C[C@@H]2C)cc1	-1	-11	0.1
CCCc1cn(CC[C@@H]2CC[C@@H](NC(=O)Nc3ccccc3F)[C@H](CO)O2)nn1	-4	-2	2.1
O=C(C[C@H]1CC[C@@H]2[C@H](COC[C@@H](O)CN2Cc2cc(F)ccc2F)O1)NCc1ccc(F)cc1	-4	2	-4.6
C[C@@H]1CN([C@H](C)CO)C(=O)c2cc(NS(=O)(=O)c3cn(C)cn3)ccc2O[C@@H](C)CCCCO[C@H]1CN(C)C(=O)Nc1ccccc1	-2	0	-1.8
CC(C)NC(=O)N(C)C[C@H]1Oc2c(cccc2N(C)C)C(=O)N([C@@H](C)CO)C[C@@H]1C	3	10	0.9
CN(C)C(=O)c1cccc(-c2ccccc2[C@H]2[C@@H](C#N)N(C(=O)C3CCCCC3)[C@H]2CO)c1	1	-4	2.6
Cc1noc(C)c1NC(=O)Nc1ccc2c(c1)C(=O)N([C@@H](C)CO)C[C@@H](C)[C@H](CN(C)S(=O)(=O)c1ccccc1)OCCCC[C@@H](C)O2	-4	-5	-1.0
C[C@@H]1CCCCO[C@H](CN(C)C(=O)Nc2ccc(C(F)(F)F)cc2)[C@H](C)CN([C@@H](C)CO)C(=O)c2cc(NC(=O)Nc3ccc(F)cc3)ccc2O1	3	10	-1.0
C[C@@H]1CN([C@H](C)CO)C(=O)c2cc(NC(=O)c3ccccc3)ccc2O[C@@H](C)CCCCO[C@H]1CN(C)C(=O)CCC(F)(F)F	-3	-10	-1.3
COC(=O)c1ccc(CN2CC(=O)N3[C@H](CO)[C@@H](c4ccc(-c5ccccc5F)cc4)[C@H]3C2)cc1	3	-1	8.1
Cc1cccc(NC(=O)c2nc[nH]c2C(=O)N[C@H](C)CO)c1	0	-2	-9.1
Cc1ccc(S(=O)(=O)Nc2ccc3c(c2)CC(=O)N([C@@H](C)CO)C[C@H](C)[C@@H](CN(C)Cc2ccccc2)O3)cc1	-44	-64	5.4
COc1ccc(NC(=O)N(C)C[C@H]2Oc3ccc(NC(=O)C4CC4)cc3C(=O)N([C@@H](C)CO)C[C@H]2C)cc1	0	8	-0.7
CC=Cc1ccc2n(c1=O)C[C@H]1[C@H](CO)[C@@H](C(=O)NCc3ccc4c(c3)OCO4)[C@@H]2N1C(=O)CC (mixture of isomers)	0	0	-1.7
O=C(O)C1C=CCC(C(=O)O)C1 (stereo unspecified)	12	9	5.3
C[C@H](CO)N1C[C@H](C)[C@@H](CN(C)S(=O)(=O)c2ccccc2)Oc2ncc(C#CC3CCCCC3)cc2C1=O	4	1	1.5
O=C(C[C@H]1C=C[C@H](NC(=O)c2ccc(F)cc2)[C@H](CO)O1)NCCc1ccccc1	0	5	-0.4
O=C(C[C@@H]1CC[C@@H]2[C@H](COC[C@@H](O)CN2CC2CC2)O1)NCc1ccc(Cl)cc1	2	4	1.9

Of the compounds above, these contain an NH in an aromatic ring.
SMILES	Ecoli rRNA inh	Ecoli rRNA inh OD600	Ecoli rRNA inh RFP
CCCNC(=O)N1CCC2(CC1)CN(Cc1ccccc1)[C@H](CO)c1[nH]c3cc(OC)ccc3c12	-1	-3	-2.8
Cc1cccc(NC(=O)c2nc[nH]c2C(=O)N[C@H](C)CO)c1	0	-2	-9.1

Part of the list above, bar-delimited.
Compound | Ecoli rRNA inh | Ecoli rRNA inh OD600 | Ecoli rRNA inh RFP
C[C@H]1CN([C@@H](C)CO)C(=O)c2cccc(NC(=O)Nc3ccc4c(c3)OCO4)c2O[C@@H]1CN(C)Cc1ccncc1 | -4 | -5 | 0.3
CC(=O)N1CCN(Cc2cc(=O)oc3ccccc23)CC1 | 8 | 5 | -2.9
